Compound activity (PubChem)
Mtb hypoxia inh = PubChem AID 1159583 | M. tuberculosis hypoxia-regulated fluorescent reporter, fluorescence | fluorescence inhibition, % (concentration not given with the values) | 300,000 tested, 0.1% active;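 active = 35 to 45% if threefold the growth effect, above 45% if 1.5-fold the growth effect; inactive = the rest, general growth blockers included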;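 also: wells of about 50 µL received 100 nL stock; 0% = vehicle wells and 100% = reference inhibitor wells; whole bacteria with a GFP reporter of the hypoxia response; strong numbers were not always called active; many hits fall short of the cut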
BJeLR lethal = MLPCN primary cell-based screen for lethality selective to Ras in HRASV12 cells; BJeLR (HRASV12) viability, CellTiter-Glo ATP luminescence, 48 h; reference of the scale not given here; inhibition, % (concentration not given with the values); 300,000 tested, 0.17% active;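 active = replicate mean above 50%; inconclusive = above 50% but judged a plate artefact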;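 also: 50 nL library stock added to about 25 µL; numbers are from one replicate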
PrP 5UTR inh = inhibition of PrP 5' UTR reporter expression | cell-based PrP 5' UTR mRNA reporter, plate reader | inhibition, % (no concentration beside the values) | 340,000 tested, 0.35% active;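 active = every replicate at 50% or more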;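 also: 0 = median of the neutral control wells; tested in H4 reporter cells; numbers are from one replicate; inactives centre near -14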
RN4220 kill = growth inhibition of S. aureus RN4220, primary screen, OD600; 16 h; inhibition, % (test concentration not listed); 330,000 tested, 0.33% active; AID 1259311, 2017;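 active = z-score of -3 or lower and OD600 up to 0.18 on both plates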;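 also: plate controls were untreated cells for no effect and reference antibiotic for full effect; stock transfer was 100 nL into about 80 µL; one replicate is shown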
Sa ugtP lethal = growth inhibition of ugtP-null S. aureus, primary screen, RN4220 ugtP deletion, OD600. 330,000 tested, 0.54% active. AID 1259309, 2017. growth inhibition, % (test concentration not listed). 16 h; some inactives read as strong as hits;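 active = z-score under -3 and OD600 up to 0.15 on both plates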;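 also: plate controls were untreated wells for no effect and antibiotic for full effect; wells of about 80 µL received 100 nL stock; the first replicate is given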
Autofluor counter = counter-screen for toxin protease inhibitors: compound fluorescence; compound autofluorescence counterscreen, microsphere flow cytometry; active compounds read high; fluorescence intensity (test concentration not listed); 360,000 tested, 3.1% active;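 active = at least 3 SD above the mean of all compounds, about 16000 in these data; inconclusive = too few beads counted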;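 also: 100 nL of 1 mM stock went into each well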
Mtb hypoxia inh growth = second read-out of Mtb hypoxia inh, no call of its own (marks repeat the call); growth inhibition, %; measured here: M. tuberculosis growth (absorbance);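 0% = vehicle and 100% = reference antibiotic; read after six days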
* hit, by the source's call; u = inconclusive; x = not tested or not shown.

The first two compounds, to show the layout:
Every second line gives: Mtb hypoxia inh, Mtb hypoxia inh growth, BJeLR lethal, PrP 5UTR inh, RN4220 kill, Sa ugtP lethal, Autofluor counter
> COc1cccc(CNC(=O)C(Cc2ccccc2)n2cccc2)c1 (stereo not drawn)
    -5, 14, -7, -17, 3.6, 14, 6539
> Cc1cc(C)c(NC(=O)CSc2ccc3nnc(CCNC(=O)c4ccccc4)n3n2)c(C)c1
    11, 2, 7, -5, 1.2, 4, 2478

Results, from the start:
Every second line gives: Mtb hypoxia inh, Mtb hypoxia inh growth, BJeLR lethal, PrP 5UTR inh, RN4220 kill, Sa ugtP lethal, Autofluor counter
> COc1cccc(CNC(=O)C(Cc2ccccc2)n2cccc2)c1 (stereo not drawn)
    -5, 14, -7, -17, 3.6, 14, 6539
> Cc1cc(C)c(NC(=O)CSc2ccc3nnc(CCNC(=O)c4ccccc4)n3n2)c(C)c1
    11, 2, 7, -5, 1.2, 4, 2478
> CCCCC1=CC2=CC(=O)C(C)(OC(=O)CC)C(=O)C2=CN1Cc1ccc2c(c1)OCO2 (stereo not drawn)
    22, 11, 7, -21, 4.1, -1, 2669
> COc1cccc(Oc2nccc(N(C)C)c2C#N)c1
    1, 2, -7, -25, 6.4, -3, 3443
> CCCn1c(CCNC(=O)c2ccco2)nc2ccccc21
    -2, -1, -6, -11, 2.9, 2, 3074
> CCN(CC)C(=O)C(=O)NN=Cc1ccc(Br)cc1
    12, 7, x, x, 6.0, 2, x
> CC1=C(C(=O)OCc2ccccc2)C(c2ccc(Cl)cc2)NC(=O)N1C (stereo not drawn)
    3, -2, -13, -2, 2.3, -1, 4111
> O=C(CSc1nnc(-c2ccncc2)n1CC1CCCO1)Nc1ccccc1Cl (stereo not drawn)
    13, 10, -4, -12, 3.2, 6, 3493
> CCSc1nnc(-c2cnn(-c3ccccc3)c2-n2cccc2)n1C
    x, x, -1, -12, -3.1, -3, 4999
> CCCCN(CCCC)c1nc2ccccc2nc1NS(=O)(=O)c1ccc(NC(C)=O)cc1
    8, 17, -25, 0, 4.1, 8, 3847
> CCOC(=O)CSc1nnc(CNC(=O)c2ccc(S(=O)(=O)N3CCCCC3)cc2)n1C
    8, 8, x, -16, 3.2, 1, 20926*
> CCOC(=O)C1(Cc2ccc(OC)cc2)CCN(C(=O)C2CCCO2)CC1 (stereo not drawn)
    11, 3, 0, -19, 0.9, 9, 2208
> CC12CCC(C(=O)NCc3ccccn3)(OC1=O)C2(C)C (stereo not drawn)
    x, x, 0, -13, 1.7, 5, 3759
> O=C(CCS(=O)(=O)Cc1ccccc1)N1CCN(Cc2ccccc2)CC1
    15, 1, -4, -9, -0.3, 4, 11278
> COc1ccc(CN/C=C2\CCCCC2=O)cc1
    -5, 5, -21, -14, -4.2, -4, 22197*
> CCOC(=O)C1CCN(C(=O)c2oc3ccc(S(=O)(=O)N4CC(C)CC(C)C4)cc3c2C)CC1 (stereo not drawn)
    9, 23, 2, -18, 0.2, -16, 3569
> COc1cc(NC(=O)c2c(OC)cccc2OC)ccc1NC(=O)c1cc2ccccc2o1
    5, 13, -6, -18, 0.7, -3, 3480
> O=C1CCCc2nn(-c3ccccc3)nc21
    -2, -5, -13, -9, -1.7, -7, 3893
> CCOC(=O)C(C)NC(=O)c1cn(-c2ccc(OC)cc2)c(=O)c2ccccc12 (stereo not drawn)
    -3, 3, 1, -7, 0.8, 3, 3441
> COc1ccc(Br)cc1CN1CCN(c2ncccn2)CC1
    -5, 6, 8, -16, 12, 10, 3673

Every second line gives: Mtb hypoxia inh, Mtb hypoxia inh growth, BJeLR lethal, PrP 5UTR inh, RN4220 kill, Sa ugtP lethal, Autofluor counter
> CC1(C)OC(=O)C(=NNc2ccc(Br)cc2)C(=O)O1
    1, 8, -1, -22, -0.9, 1, 2251
> CCNc1ccc(S(=O)(=O)N(C)C)cc1NCC(=O)Nc1ccccc1Cl
    10, -1, x, -16, 2.0, -8, 5865
> O=C1CCCN1CCCNc1ncnc2c1[nH]c1ccccc12
    16, 8, -8, -40, 2.1, 1, 22994*
> COCCCNC(=O)CNC(=O)c1nn(-c2ccc(OC)c(Cl)c2)c(=O)c2ccccc12
    18, -1, -3, -13, 2.2, 5, 3719
> COC(=O)C1(CC2CC(c3ccc(Cl)cc3)=NO2)CCN(C(=O)OC(C)(C)C)CC1 (stereo not drawn)
    6, 12, -20, -10, 1.0, 5, 4048
> O=C(NN=C/C(Br)=C\c1ccccc1)c1cccs1
    -6, -3, x, x, -4.6, -15, x
> CCCC1(C(=O)OC)NC(c2ccco2)C2C(=O)N(C)C(=O)C21 (stereo not drawn)
    -1, 3, 1, -28, 6.9, -4, 3965
> CCOc1ccc(C=NNc2nc(N3CCCC3)nc(N3CCCC3)n2)cc1OC
    1, 1, x, x, 6.7, 3, x
> Cc1cnc(NC(=O)CCCSc2nc3ccccc3s2)s1
    0, 13, 0, -30, 5.0, -12, 8989
> COc1ccc(NC(=O)c2cccnc2Nc2ccccc2)cc1
    11, 3, -4, -25, -8.9, 24, 23086*
> c1ccc(-c2cc3c(NCC4COc5ccccc5O4)ncnc3s2)cc1 (stereo not drawn)
    7, 7, 3, -10, 7.2, -13, 2562
> O=C(Nc1ccc(-n2ccnc2P(=O)(O)c2ccccc2)cc1)c1ccccc1Br
    x, x, 6, -7, x, x, 2865
> COc1cc(C(=O)N2CCCCCCC2)ccc1OC1CCN(C(C)=O)CC1
    2, 0, -9, -14, 1.9, 7, 5804
> COc1ccc(CC(=O)N[C@@H]2c3cc(OC)c(OC)cc3C[C@H]2O)cc1
    -8, 0, x, -15, -0.9, -2, 2925
> COc1ccc(/C(C)=N/NC(=O)CNC(=O)c2cccs2)cc1OC
    x, x, -5, -8, x, x, 2533
> COc1ccc(Cl)cc1NC(=O)CSc1nc(N2CCOCC2)nc(N2CCOCC2)n1
    7, 2, -13, 1, 2.7, 6, 6222
> FC(F)Oc1ccccc1NC(=S)Nc1cccc(Cl)c1Cl
    -7, -1, 3, 7, -1.9, -7, 2161
> CC(C)CC(=O)N1CCN(Cc2ccc(Br)cc2)CC1
    3, 8, -3, -22, 2.6, 13, 3800
> Cc1ccc(C)c(-n2cc(CN3CCN(C(=O)c4ncn[nH]4)CC3)c(-c3ccccc3)n2)c1
    -6, 1, -13, -18, 11, 1, 2090
> COc1ccc(/C=C2\CCCC3C2=NN(C(=O)c2ccco2)C3c2ccc(OC)c(OC)c2)cc1OC (stereo not drawn)
    x, x, 7, -2, -2.7, 16, 4276

Every second line gives: Mtb hypoxia inh, Mtb hypoxia inh growth, BJeLR lethal, PrP 5UTR inh, RN4220 kill, Sa ugtP lethal, Autofluor counter
> COc1cc(NC(=S)NC(=O)CC(C)C)ccc1NC(=O)c1cc2ccccc2o1
    -3, -3, -7, -22, -3.4, -6, 2439
> Nc1ccc2c(c1)ncn2CCCn1cnc2cc(N)ccc21
    18, 6, 4, -31, 4.5, -6, 12213
> CC1=C(C(=O)OCC2CCCCC2)C(c2cccc(O)c2)NC(=O)N1 (stereo not drawn)
    x, x, 2, 2, x, x, 3701
> CC(=O)c1c(O)cc(=O)n(-c2ccccc2)c1-c1ccc(C)cc1
    x, x, -1, -13, 1.0, 0, 3496
> O=C(COC(=O)C12CC3CC(CC(C3)C1)C2)NCCCc1ccccc1
    4, 1, 2, -7, 4.2, -5, 2339
> CCOC(=O)CSc1nc2ccccc2c(=O)[nH]1
    4, 12, 5, -64, 0.6, 8, 4150
> COC(=O)c1c(NC(=O)CCl)sc(C(=O)N2CCOCC2)c1C
    x, x, -10, -63, 5.3, -4, 4405
> CC1(C)Cc2c(cnn2-c2ccc(F)cc2)C(NC(=O)CN2CCCC2=O)C1 (stereo not drawn)
    3, -2, 2, -3, 6.1, 2, 5797
> O=C(Nc1c(C(=O)N2CCN(c3ccccn3)CC2)oc2ccccc12)c1cccc([N+](=O)[O-])c1
    -1, 1, 5, -13, -9.2, -2, 6678
> O=C(O)CCSc1nc2ccccc2c(=O)[nH]1
    5, 11, -3, -6, 4.2, -4, 3663
> O=C(c1ccc(=O)[nH]n1)N1CCN(S(=O)(=O)c2ccc3ccccc3c2)CC1
    -5, 16, -6, -3, 3.0, 1, 3608
> Cc1noc2c1C(c1ccc(N(C)C)cc1)C1=C(CC(C)(C)CC1=O)N2 (stereo not drawn)
    0, 0, -5, -14, 3.2, 7, 9532
> CC1c2[nH]c3ccccc3c2CCN1C(=O)Nc1ccccc1 (stereo not drawn)
    x, x, 4, -1, -4.1, -15, 2507
> CC(CN(C)C)CN1c2ccccc2Sc2ccccc21 (stereo not drawn)
    6, 17, x, -9, 1.6, -3, 4641
> O=C(COC(=O)C1COc2ccccc2O1)Nc1ccccc1OC(F)F (stereo not drawn)
    4, -6, x, -3, 2.8, 0, 9063
> COc1ccc(/C=N/Nc2ncc(C(F)(F)F)cc2Cl)cc1OC
    x, x, 11, -12, x, x, 2383
> CCCCN(C(=O)C(C)Oc1ccc(Br)cc1)c1c(N)n(CC(C)C)c(=O)[nH]c1=O (stereo not drawn)
    5, -6, x, -3, -1.0, -7, 2941
> CN(C(=O)COC(=O)CCCN1C(=O)c2cccc3cccc(c23)C1=O)C1CCS(=O)(=O)C1 (stereo not drawn)
    6, -5, 8, -20, 4.0, 9, 6082
> Cc1ccc(C)c(NC(=O)CCC(=O)NNC(=O)C(c2ccccc2)c2ccccc2)c1
    2, 1, 17, -16, 7.7, -1, 8437
> O=C1CC(/C=C/c2ccc([N+](=O)[O-])cc2)=Nc2ccccc2N1
    7, 14, 6, -35, 9.0, 7, 4240

Every second line gives: Mtb hypoxia inh, Mtb hypoxia inh growth, BJeLR lethal, PrP 5UTR inh, RN4220 kill, Sa ugtP lethal, Autofluor counter
> CCC(=O)N1N=C(c2ccccc2)CC1c1ccc([N+](=O)[O-])cc1 (stereo not drawn)
    7, 1, -4, -28, 5.8, -6, 8442
> Cn1cnnc1SCC(=O)N/N=C/c1ccc(OCC(N)=O)cc1
    x, x, 0, -7, x, x, u
> Cc1ccc(O)c(Nc2nc(-c3ccccc3)nc3ccccc23)c1
    12, 0, -9, -9, -14, -1, 3443
> O=C(NC1CCCCC1)C(c1ccccn1)N(C(=O)c1csnn1)C1CC1 (stereo not drawn)
    11, -1, 2, -30, 3.0, 0, 5026

A draw from above in order of count of non-hydrogen atoms, lowest first.
Every second line gives: Mtb hypoxia inh, Mtb hypoxia inh growth, BJeLR lethal, PrP 5UTR inh, RN4220 kill, Sa ugtP lethal, Autofluor counter
> CC(CN(C)C)CN1c2ccccc2Sc2ccccc21 (stereo not drawn)
    6, 17, x, -9, 1.6, -3, 4641
> CC1c2[nH]c3ccccc3c2CCN1C(=O)Nc1ccccc1 (stereo not drawn)
    x, x, 4, -1, -4.1, -15, 2507
> Cn1cnnc1SCC(=O)N/N=C/c1ccc(OCC(N)=O)cc1
    x, x, 0, -7, x, x, u
> Cc1ccc(O)c(Nc2nc(-c3ccccc3)nc3ccccc23)c1
    12, 0, -9, -9, -14, -1, 3443
> O=C(COC(=O)C1COc2ccccc2O1)Nc1ccccc1OC(F)F (stereo not drawn)
    4, -6, x, -3, 2.8, 0, 9063
> CCCCN(C(=O)C(C)Oc1ccc(Br)cc1)c1c(N)n(CC(C)C)c(=O)[nH]c1=O (stereo not drawn)
    5, -6, x, -3, -1.0, -7, 2941
> Cc1ccc(C)c(NC(=O)CCC(=O)NNC(=O)C(c2ccccc2)c2ccccc2)c1
    2, 1, 17, -16, 7.7, -1, 8437
> CN(C(=O)COC(=O)CCCN1C(=O)c2cccc3cccc(c23)C1=O)C1CCS(=O)(=O)C1 (stereo not drawn)
    6, -5, 8, -20, 4.0, 9, 6082
